# From PubChem BioAssay
# Bfl-1 A1 inh: caspase 3/7 activation in MEF A1-2A-BIM cells, primary screen, A1 inhibitor project, cell-based, luminescence, HTS; Caspase-Glo 3/7 luminescence, 3 h; percent of clofoctol response, vehicle zero; caspase activation, % (concentration not given with the values); 0.066% of 330,000 active; AID 2462, 2010;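 active means over half of replicate activation scores above 10%, or exactly half above 10 with the replicate mean above 10; inconclusive means replicate mean below 10 yet half the replicates above 10; inactive means over half of replicates below 10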;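 further: wells of about 30 µL received 50 nL stock; many hits fall short of the cut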
# RanGTP-Impb inh: inhibitors of RanGTP-importin-beta interaction, primary screen, biochemical, FRET, CFP-Ran, YFP-importin-beta, homogeneous | 1.1% of 300,000 active | inhibition, % (concentration not given with the values) | AID 2216, 2009 | cell-free CFP-Ran/YFP-importin-beta FRET ratio | Ran GTPase (GTP-bound) - importin-beta complex;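 active means most replicates above 15%; inconclusive means exactly half above 15%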;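 further: 0% = DMSO wells and 100% = Ran loaded with GDP instead of GTP; wells of about 40 µL received 100 nL stock; the first replicate is given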
# MLL AF4-AF9 inh: inhibitors of AF4 peptide binding to AF9, primary screen, biochemical, AlphaScreen, biotin-AF4 peptide, FLAG-AF9, single point; inhibition, % at 10 µM; 0.47% of 350,000 active; AID 651704, 2012;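 active means every replicate reaching a set inhibition limit, whatever the replicate mean, cut at about 25% in these data; inconclusive means mean inhibition reaches that limit but some replicates miss it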;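 further: 0% = plate neutral control median and 100% = total signal loss; the record names both 10 and 1 µM as test concentration; the first replicate is given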
# Target sequence (P42568 whole entry, looked up): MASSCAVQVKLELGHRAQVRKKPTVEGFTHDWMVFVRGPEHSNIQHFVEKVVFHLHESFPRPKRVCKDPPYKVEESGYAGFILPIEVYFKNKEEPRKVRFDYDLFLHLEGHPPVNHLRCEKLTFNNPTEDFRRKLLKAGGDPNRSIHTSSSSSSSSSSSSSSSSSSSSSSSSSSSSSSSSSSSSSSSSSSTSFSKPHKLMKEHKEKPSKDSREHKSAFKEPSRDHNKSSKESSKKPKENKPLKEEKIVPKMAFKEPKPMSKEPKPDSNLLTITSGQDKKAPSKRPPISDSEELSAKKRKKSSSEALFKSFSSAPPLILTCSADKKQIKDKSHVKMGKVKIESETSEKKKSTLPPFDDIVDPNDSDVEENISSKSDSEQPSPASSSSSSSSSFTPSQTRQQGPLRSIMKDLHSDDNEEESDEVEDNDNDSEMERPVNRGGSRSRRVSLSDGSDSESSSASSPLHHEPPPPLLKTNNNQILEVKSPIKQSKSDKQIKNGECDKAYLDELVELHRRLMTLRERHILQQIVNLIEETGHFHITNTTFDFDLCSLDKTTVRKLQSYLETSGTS
# Calb FLC: C. albicans growth inhibition with fluconazole, primary screen, CaCi-2 strain, Alamar Blue fluorescence | growth inhibition, % (concentration not given with the values) | AID 1979, 2009 | C. albicans CaCi-2 (fluconazole-resistant clinical isolate) + fluconazole, 48 h | 0.57% of 300,000 active;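 active means most replicates above 75%; inconclusive means exactly half above 75%; inactive means most below 75%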;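 further: all wells also contain fluconazole at 8 µg/ml as a sub-toxic cotreatment; 0% = median of DMSO wells and 100% = median of geldanamycin control wells; wells of about 8 µL received 7.5 nL stock; the first replicate is given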
# T cruzi repl: inhibitors of intracellular T. cruzi growth, primary screen, luminescence, NIH3T3 host cells; 1.4% of 300,000 active; AID 1885, 2009; T. cruzi beta-gal in NIH3T3, 90 h; inhibition, % (no concentration beside the values);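 active means mean inhibition across valid replicates above about 55%, limit read from the data; inconclusive means mean below that limit but half or more replicates reach it; inactive means mean below it, under half of replicates reach it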;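 further: signal also drops with host cell toxicity which is not excluded here; 0% = plate median of DMSO wells and 100% = zero luminescence signal; higher percent means less beta-gal luminescence so fewer parasites; stock transfer was 50 nL into about 50 µL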
# Vif A3G: inhibitors of Vif binding to APOBEC3G peptide, primary screen, biochemical, TR-FRET, GST-Vif 1-94, biotin-A3G peptide, dose response retest (AID 1117319). Virion infectivity factor (Human immunodeficiency virus type 1 group M subtype B (isolate …. TR-FRET GST-Vif / biotin-A3G peptide binding; higher % means a stronger effect; test concentration not given here; strong numbers were not always called active. inhibition, %, or IC50 in µM where a hit was titrated. 0.57% of 260,000 active;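 active means above the screen mean plus three standard deviations and confirmed in dose response; inconclusive means results disagree or hit not tested in dose response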;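 further: Vif residues 1-94 fused to GST binding biotinylated APOBEC3G peptide 110-148; 0% = full assay without inhibitor and 100% = GST in place of GST-Vif; retest series ran down from 100 µM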
# Beta apoptosis: inhibitors of cytokine-induced beta cell apoptosis, primary screen, luminescence; INS-1E cytokine-induced death, ATP luminescence, 48 h; percent of positive-control rescue, neutral wells zero; protection from apoptosis, % (test concentration not listed); 0.8% of 300,000 active; AID 435005, 2010;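 active means all replicates at 75% or more, or half of them and the mean; inconclusive means half reach 75% but not the mean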;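 further: 0% = cytokine-treated negative control wells and 100% = positive control rescue; higher means more ATP so stronger rescue from cytokine killing; wells of about 40 µL received 100 nL stock; the first replicate is given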
# Ecoli rRNA inh: reduced GFP signal of wild-type E. coli, primary screen, bacterial rRNA inhibitor project, GFP/RFP fluorescence, OD600, single point; E. coli WT GFP vs humanized-ribosome RFP mutants, 24 h; hits give low values; DMSO median 0, no signal -100; GFP signal change (wild-type ribosome), % (no concentration beside the values); 1.6% of 350,000 active;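 active means significant combined selectivity score with lowered wild-type GFP, culture density cut under 30%, mutant RFP and density less affected; inactive means any of these conditions unmet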; further: one replicate is shown; some compounds called inactive have numbers as strong as hits
# Ecoli rRNA inh OD600: further read-out of Ecoli rRNA inh, marked with its call; OD600 change, %; measured here: OD600 growth;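 optical density of the mix in the first replicate; 0 = DMSO median and -100 = no signal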
# Ecoli rRNA inh RFP: also measured in Ecoli rRNA inh; calls as there; RFP signal change, %; measured here: RFP humanized mutant strains;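 first replicate; 0 = DMSO median and -100 = no signal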
# Starred values were filed as active, the others as inactive; ? = inconclusive; . = no result given; & = joins results of further samples. These rows are one share of the data; count on the stated rates, not on these rows.
SMILES,Bfl-1 A1 inh,RanGTP-Impb inh,MLL AF4-AF9 inh,Calb FLC,T cruzi repl,Vif A3G,Beta apoptosis,Ecoli rRNA inh,Ecoli rRNA inh OD600,Ecoli rRNA inh RFP
CNc1oc(-c2ccc(F)cc2)nc1S(=O)(=O)c1ccccc1,0.0,-5.3,3.8,5.5,6.8,.,-4.0,11.2,13.1,-0.5
Cc1ccc(S(=O)(=O)c2nc(N3CCOCC3)sc2Cl)cc1,0.4,6.0,.,0.6,-2.5,7.6%,-12.2,.,.,.
Cc1ccc(NC(=O)CSc2ccccc2NC(=O)c2ccccc2Cl)cc1Cl,-0.3,3.9,1.5,-15.8,27.3,20.9%,13.6,16.9,11.0,-3.1
COC(=O)c1ccc(/C=C2\N=C(SC)SC2=O)cc1,-0.5,0.6,.,-3.4,-26.4,.,-3.3,.,.,.
Cc1cccc(C(=O)Nc2ccc(C(=O)N/N=C/c3ccco3)cc2)c1,0.0,-20.7,-0.1,-7.8,-10.3,?,-2.7,-0.9,2.6,-0.2
Cc1nnc(NC(=O)C2CCCN2S(=O)(=O)c2ccc(Cl)cc2)s1 (stereo unspecified),1.7,1.2,1.2,-14.0,4.6,-10.3%,1.9,25.4,21.0,2.7
CO/N=C/c1ccc(N2CCN(C(=O)c3cccc(Cl)c3)CC2)c([N+](=O)[O-])c1,-0.6,1.6,.,?,18.8,-1.3%,5.3,.,.,.
COc1ccccc1N(C(=O)Cn1nnc2ccccc21)C(C(=O)NCc1ccco1)c1ccc(C)o1 (stereo unspecified),1.0,?,.,-31.8,12.4,10.2%&-3.9%,-0.5,.,.,.
C=CCn1c(SCC(=O)Nc2ccc(Cl)cn2)nnc1C1CC1,0.3,-3.4,0.0,0.5,15.0,.,-11.0,3.8,20.4,1.4
Cc1cc(C(=O)NC2CCCc3ccccc32)no1 (stereo unspecified),-0.2,1.0,.,3.1,4.1,0.0%,-3.0,.,.,.
COc1ccc(NC(=O)C2(c3ccccc3)CCCC2)cc1,0.8,6.0,-1.7,8.7,-16.2,?,0.1,5.4,8.8,-0.7
CC1(C)CC(NC(=O)Cc2ccc(Cl)cc2)CC(C)(C)N1,1.1,6.5,3.8,20.6,-4.6,-2.8%,.,0.3,6.7,-3.3
NCCCC[C@H]1CNC(=S)N1CC1(c2ccccc2)CC1,0.3,?,.,-15.7,-8.3,.,-0.8,-0.1,7.8,-2.0
CC(C)OC(=O)c1nnn(-c2nonc2N)c1CN1CCCCCC1,-0.1,23.5*,.,-7.2,-2.0,6.7%,-7.4,.,.,.
Nc1ccc(-c2ccc(N)cc2C(F)(F)F)c(C(F)(F)F)c1,-0.7,-0.3,.,-7.7,27.5,-4.2%,-4.7,.,.,.
COc1ccc(-c2nc3c4ccccc4ccn3c2CN2CCCCC2)cc1OC,-1.4,0.7,-31.5,-1.2,17.5,25.8%,12.6,-7.0,-10.4,-5.8
COc1cccc2cc(C(=O)N3CCN(C(=O)c4ccccc4)CC3)c(=O)oc12,-0.9,-0.5,.,-3.4,-6.7,?,6.0,.,.,.
O=C(CN1C2=NCCCN2c2ccccc21)c1cccs1,1.6,-2.7,.,-11.1,15.3,2.8%,-13.1,.,.,.
Cc1nnc(SCC(=O)Nc2ccc(Br)cc2)n(N)c1=O,-0.4,4.9,-2.3,6.1,-13.2,2.9%,-5.0,-8.4,-7.9,1.6
Cc1cc(CSc2ccccc2)ccc1NC(=O)c1ccc(Br)cc1,-0.3,1.2,-4.6,-10.0,19.9,.,19.0,17.3,16.3,2.2

# Molecules from the list above with bromine (two):
SMILES,Bfl-1 A1 inh,RanGTP-Impb inh,MLL AF4-AF9 inh,Calb FLC,T cruzi repl,Vif A3G,Beta apoptosis,Ecoli rRNA inh,Ecoli rRNA inh OD600,Ecoli rRNA inh RFP
Cc1nnc(SCC(=O)Nc2ccc(Br)cc2)n(N)c1=O,-0.4,4.9,-2.3,6.1,-13.2,2.9%,-5.0,-8.4,-7.9,1.6
Cc1cc(CSc2ccccc2)ccc1NC(=O)c1ccc(Br)cc1,-0.3,1.2,-4.6,-10.0,19.9,.,19.0,17.3,16.3,2.2

# Taken from above.
# CC1(C)CC(NC(=O)Cc2ccc(Cl)cc2)CC(C)(C)N1 in Calb FLC has 20.6
# Cc1cc(CSc2ccccc2)ccc1NC(=O)c1ccc(Br)cc1 in Bfl-1 A1 inh has -0.3
# Cc1nnc(SCC(=O)Nc2ccc(Br)cc2)n(N)c1=O in Ecoli rRNA inh RFP has 1.6
# NCCCC[C@H]1CNC(=S)N1CC1(c2ccccc2)CC1 in Ecoli rRNA inh RFP has -2.0

# Remaining list, next part.
SMILES,Bfl-1 A1 inh,RanGTP-Impb inh,MLL AF4-AF9 inh,Calb FLC,T cruzi repl,Vif A3G,Beta apoptosis,Ecoli rRNA inh,Ecoli rRNA inh OD600,Ecoli rRNA inh RFP
COc1ccc(-n2nc(C(=O)NCC(=O)O)c3ccccc3c2=O)cc1,-0.3,-2.4,1.3,-4.8,-5.8,1.5%,-4.5,6.4,8.2,-0.6
Cc1oc(/C=N/NC(=O)CN(c2ccccc2Cl)S(C)(=O)=O)cc1Br,-0.5,2.9,.,16.2,4.6,10.6%,5.4,.,.,.
CCCOc1cccc(-c2cc(C(=O)N/N=C/c3ccccn3)c3ccccc3n2)c1,-0.8,-4.0,6.7,-0.9,22.3,.,24.2,-25.9,-43.8,-2.0
O=C(NN=C(Cc1ccccc1)Cc1ccccc1)c1ccccc1F,-1.3,?,-1.6,-15.6,-8.8,12.2%,3.6,3.5,9.1,-0.5
CCOC(=O)C1CCN(C(=O)Cc2ccccc2OC)CC1,-0.2,-0.6,-2.3,-2.8,-0.7,-4.8%,-0.1,3.0,4.9,0.9
OCC[C@H]1C[C@@H](O)[C@H](O)[C@]2(CCCCO2)O1,-0.3,3.4,0.8,4.7,-12.9,.,-5.3,4.0,-10.0,0.9
CCOC(=O)c1cc(C(=O)n2cc(Cl)cn2)nn1C,2.9,?,.,5.2,4.3,-8.6%,-3.0,.,.,.
COc1cccc(OCCOc2cccc(/C=N/n3cnnc3)c2)c1,-0.7,-1.5,.,34.5,5.8,-8.2%,4.9,.,.,.
O=C(ON=C1CCN(c2ccc([N+](=O)[O-])cc2)CC1)c1ccccc1,.,-4.4,.,-6.0,-16.3,-2.4%,-7.0,.,.,.
CN(C)N1C(N)=C(C#N)C(c2cccc3ccccc23)C2=C1CC(c1ccccc1)CC2=O (stereo unspecified),0.5,-1.4,.,0.9,0.9,.,-0.7,.,.,.
Cc1cccc(C(=O)N2CCCCCC2)c1,1.4,?,.,-7.7,-3.2,?,-2.4,.,.,.
c1ccc(N2CCN(Cc3ccc4c(c3)OCO4)CC2)nc1,-0.6,2.0,0.8,-10.8,9.6,.,-3.7,10.1,3.4,1.9
Cc1cccc(NC(=O)CN(C)S(=O)(=O)c2ccc3c(c2)n(C)c(=O)c(=O)n3C)c1C,0.2,-2.0,4.6,-12.9,-13.7,-7.4%,-1.1,-0.9,9.8,3.1
COc1cccc(/C=N/NC(=O)C(=O)NCc2cccnc2)c1,0.5,1.1,.,-6.7,-18.2,?,-4.0,.,.,.
CC(C)c1ccc(NC(=O)[C@@H]2CCC(=O)N2C2OC(=O)c3ccccc32)cc1 (stereo partly specified),0.0,-0.6,-1.6,-6.5,0.3,.,0.2,.,.,.
Cc1cc(C(=O)NC2CC(C)(C)Cc3c2cnn3-c2ccccc2C)c(C)o1 (stereo unspecified),0.2,3.9,3.4,-3.7,2.5,0.5%,.,-5.3,-35.2,-1.5
CCn1c(CNC(=O)c2cccc(C)c2)nnc1SCC(=O)NC1CCCCC1C (stereo unspecified),-0.6,3.3,.,2.1,-3.4,0.8%,-2.4,.,.,.
COC(=O)c1ccccc1NC(=O)c1cc2ncc(Br)cn2n1,-0.4,0.0,.,11.2,-8.5,5.9%,0.4,.,.,.
COc1ccccc1NC(=O)c1ccc(COc2ccccc2OC)cc1,-0.2,-1.9,2.0,-0.5,3.7,.,-2.4,-3.1,1.0,-1.1
COC(=O)c1cc(Br)c(=O)n(CCc2ccccc2)c1,0.2,-1.2,.,-9.2,-9.7,0.3%,6.3,.,.,.
CCC(C)N(C(=O)c1csnn1)C(C(=O)NC(C)(C)C)c1ccccc1 (stereo unspecified),-0.7,7.0,.,-0.4,-16.4,-2.4%,-6.6,.,.,.
COc1ccc(OCc2cc(C(=O)NC3Cc4ccccc4C3)no2)c(Cl)c1,0.6,-2.3,-0.6,-0.2,-20.8,.,4.1,8.5,11.5,2.1
CC(=O)N1CCN(C(=O)c2cc(=O)c3ccccc3o2)CC1,0.6,?,1.2,-13.9,-8.1,.,-0.5,10.7,14.8,-0.2
CCS(=O)(=O)N1Cc2ccccc2CC1C(=O)Nc1ccc(OC)c(OC)c1 (stereo unspecified),0.8,-2.0,-10.2,-4.8,1.7,11.7%,4.2,7.6,9.1,-2.0
CCNC(=O)CN(c1ccccc1)S(=O)(=O)c1ccc(Cl)cc1,0.6,-1.8,2.5,-1.9,-11.3,2.2%,-7.6,2.7,7.6,-6.5
CN1C(=O)C(C)(C)c2cc(S(=O)(=O)N3CCCC(C(=O)NCc4ccc(F)cc4)C3)ccc21 (stereo unspecified),-0.6,4.1,-5.7,-10.4,4.6,.,1.8,-6.8,-15.6,-4.0
Cc1cc(Cl)ccc1OC(C)C(=O)NC(C)C1CCCO1 (stereo unspecified),-0.1,5.4,-2.8,-4.6,1.4,.,-3.3,0.0,6.8,-0.2
CC(C)Cn1c(=S)[nH]c2cc(Cl)ccc21,0.7,1.0,0.1,-0.2,7.8,-4.8%,2.9,-19.4,-12.3,0.0
COc1ccc(C2=NOC(C(=O)Nc3ccc4c(c3)OCCO4)C2)cc1OC (stereo unspecified),1.9,-4.0,3.0,-5.1,-17.3,-0.1%,0.1,-4.2,-13.6,-1.2
O/N=C(/CCc1ccccc1)C1(O)CCCCC1,-0.4,1.5,-0.7,-14.4,-10.1,-0.8%,-6.3,1.2,-2.1,2.5
CCCCN1C(=O)C2ON(c3ccccc3C)C(c3ccco3)C2C1=O (stereo unspecified),-0.1,4.7,1.1,12.9,4.4,2.2%,5.1,-25.9,-25.2,2.6
c1ccn2cc(-c3ccc4c(c3)OCCO4)nc2c1,-7.2,3.3,0.7,-16.8,1.7,7.0%,18.3,-12.1,-8.4,-2.9
COc1ccccc1-c1nnc(NC(=O)c2ccccc2F)o1,0.1,0.4,0.7,14.8,-6.9,4.1%,.,-20.2,-37.7,-6.5
